NS1 function inh = qHTS Assay for Inhibitors of Influenza NS1 Protein Function; S. cerevisiae slowed by influenza A NS1, growth recovery by OD600; Potency, µM (titrated, usually from 46.1 µM), for the others: at the highest dose activity, positive = more growth; 270,000 compounds, 0.4% hits; AID 2326, 2010; active means well fitted rising curve with a large enough effect; inconclusive means small, poorly fitted or top-dose-only effect; inactive means no such curve, though single readings can be large or run the other way; also: nearly all actives have a fitted effect of over 50% in size
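Compounds were scored for reversing the slow growth caused by influenza A NS1 in S. cerevisiae, measured by optical density at 600 nm. Assay medium contained 2% galactose at pH 6.0; NS1-free yeast of the same strain were the positive control.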
RE007 growth inh = qHTS Assay for Inhibitors of the HIV-1 protein Vpr | S. pombe RE007 Vpr strain, BacTiter-Glo ATP luminescence, 24 h; control for the full effect not named in the record | 360,000 compounds, 0.21% hits | Potency, µM (highest dose often 92.2 µM), without a hit: at the highest dose activity change, negative = less growth; active = well fitted falling curve with a large enough effect; inconclusive = small, poorly fitted or top-dose-only effect; inactive = no such curve, though single readings can be large or run the other way;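 also: % is scaled to controls: 0 for no effect and ±100 for the full control effect; nearly all actives have a fitted effect of over 50% in size; the assay follows cell death caused by Vpr and the record does not say whether a fall means rescue or toxicity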
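Fission yeast RE007 carrying one integrated HIV-1 vpr copy, seeded at OD 0.01 in PMG+AL medium with 23 nL pinned compound. Grown 24 h at 30 degrees; viability read by BacTiter-Glo luminescence after 5 min.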
Cruzain inh Det = qHTS Assay for Promiscuous and Specific Inhibitors of Cruzain (with detergent); Cruzipain (Trypanosoma cruzi), P25779; purified cruzain, Z-FR-AMC fluorescence, 0.01% Triton; Potency, µM, for inactives: max response, negative = inhibition, actives largely listed as inhibitors; 200,000 compounds, 0.43% hits;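 also: plate controls were neutral wells for no effect and buffer without enzyme for full effect; nearly all actives have a fitted effect of over 40% in size; top concentration of the series not given in the record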
Target sequence (P25779 123-467 limits assumed): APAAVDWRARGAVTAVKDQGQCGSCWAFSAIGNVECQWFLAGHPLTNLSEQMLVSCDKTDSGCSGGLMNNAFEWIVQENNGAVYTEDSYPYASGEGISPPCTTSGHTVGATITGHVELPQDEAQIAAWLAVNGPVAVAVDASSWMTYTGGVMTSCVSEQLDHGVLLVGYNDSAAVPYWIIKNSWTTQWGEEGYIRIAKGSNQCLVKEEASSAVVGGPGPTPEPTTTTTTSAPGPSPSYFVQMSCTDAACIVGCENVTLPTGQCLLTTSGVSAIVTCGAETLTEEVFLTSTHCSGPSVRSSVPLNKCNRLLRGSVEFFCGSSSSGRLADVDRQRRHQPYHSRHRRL
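Sodium acetate buffer (100 mM, pH 5.5) containing 5 mM DTT and 0.01% Triton X-100 hosted 1.5 nM cruzain and test compound for 15 min at room temperature. Cleavage of 2 uM Z-FR-AMC was then tracked by fluorescence.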
Cruzain inh noDet = qHTS Assay for Promiscuous and Specific Inhibitors of Cruzain (without detergent); purified cruzain, Z-FR-AMC fluorescence, no detergent; Cruzipain (Trypanosoma cruzi), P25779; 200,000 compounds, 2.3% hits; Potency, µM, for inactives: max response, negative = inhibition, usual class: inhibitors;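 also: plate controls were enzyme without inhibitor for no effect and buffer without enzyme for full effect; nearly all actives have a fitted effect of over 40% in size; top concentration of the series not given in the record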
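Purified cruzain at 1.5 nM, pre-incubated 15 min with compound at room temperature in 100 mM sodium acetate pH 5.5, 5 mM DTT, 0.00005% Triton X-100. Reaction started with 2 uM Z-FR-AMC; AMC fluorescence increase over 60 s gives rate.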
2A StopGo = High Throughput Screening for Foot and Mouth Disease Virus Antivirals. human cells with a luciferase reporter of 2A StopGo recoding; control for the full effect not named in the record. Potency, µM (series often up to 57.9 µM), for the others: at the top dose signal change, negative = less light. 410,000 compounds, 1.2% hits. AID 1159524, 2015; active = well fitted falling curve with a large enough effect; inconclusive = small, poorly fitted or top-dose-only effect; inactive = no such curve, though single readings can be large or run the other way; tested in HEK293T cells; also: % is scaled to controls: 0 for no effect and ±100 for the full control effect; nearly all actives have a fitted effect of over 45% in size; luciferase light after 4 h
MARV entry inh = qHTS for inhibitors of binding or entry into cells for Marburg Virus. 300,000 compounds, 1.8% hits. Marburg virus pseudotyped entry inhibition, cell reporter; control for the full effect not named in the record; about a third of the inactives were read at about 46 µM. Potency, µM (highest dose often 37.8 µM), without a hit: top-dose activity change, negative = inhibition, usual class: inhibitors; active = well fitted inhibition curve with a large enough effect; inconclusive = small, poorly fitted or top-dose-only effect, or effect the other way; inactive = flat fitted curve, though single readings scatter; tested in HEK293 cells; about a fifth of its hits are not listed in these tables; also: % is scaled to controls: 0 for no effect and ±100 for the full control effect; luciferase read-out
Lassa entry inh = qHTS for Inhibitors of binding or entry into cells for Lassa Virus; 300,000 compounds, 1.2% hits; Potency, µM (titrated, usually from 37.9 µM), inactives show at the top dose activity change, negative = inhibition, hits mostly inhibitors; Lassa virus pseudotype entry inhibition, cell reporter; control for the full effect not named in the record; active means well fitted inhibition curve with a large enough effect; inconclusive means small, poorly fitted or top-dose-only effect, or effect the other way; inactive means flat fitted curve, though single readings scatter; tested in HEK293 cells; also: % is scaled to controls: 0 for no effect and ±100 for the full control effect; nearly all actives have a fitted effect of over 50% in size; luciferase read-out
SARS PLP yeast = qHTS of Yeast-based Assay for SARS-CoV PLP | S. cerevisiae expressing SARS-CoV PLpro, growth rescue; control for the full effect not named in the record | Potency, µM (doses to about 32.9 µM), without a hit: top-dose activity, positive = growth rescue | 330,000 compounds, 0.19% hits; active means well fitted rising curve with a large enough effect; inconclusive means small, poorly fitted or top-dose-only effect; inactive means no such curve, though single readings can be large or run the other way; also: 0% is about no effect; nearly all actives have a fitted effect of over 55% in size; growth read by luminescence after 48 h
The depositor's hits bear a star; ? = inconclusive; . = no result given; & = joins results of further samples; [ ] = remark or other dose. Unless noted, calls follow the shape of the dose curve; as a rule, active = well fitted curve in the direction sought with a large enough effect; inconclusive = small, poorly fitted or top-dose-only effect, or another doubt; inactive = no such curve, though single readings can be large; an effect the other way counts as inactive or inconclusive. Potency is read from the fitted curve at half-maximal effect. Compounds were not picked by outcome; any-hit rate near 4.7%.

SMILES	NS1 function inh	RE007 growth inh	Cruzain inh Det	Cruzain inh noDet	2A StopGo	MARV entry inh	Lassa entry inh	SARS PLP yeast
Cn1c(=O)c2ncn(CC(=O)NCCOc3ccc(C(C)(C)C)cc3)c2n(C)c1=O	0%	0%	3.4%	-1%	-21%	3%	-4%	3%
CCOC(=O)c1cc(C)n(CCc2cnc[nH]2)c1C	-2%	-1%	2.4%	7%	2%	29%	?	7%
COCC(C)NS(=O)(=O)c1ccc(OC)cc1 (stereo unspecified)	10%	7%	1.3%	3%	19%	-2%	25%	-3%
O=C(NCc1ccco1)C(=O)c1cn(CC(=O)N2CCCCC2)c2ccccc12	.	-2%	.	.	-12%	-18%	1%	5%
Nn1c(SC/C=C/c2ccccc2)nnc1-c1ccco1	-13%	-22%	2.1%	-8%	-13%	15%	-13%	.
CCN1CCCC1Cn1cnc2c([nH]c3ccc(C)cc32)c1=O (stereo unspecified)	9%	-4%	-7.7%	-18%	0%	?	0%	-3%
COc1ccc(-n2c(-c3ccccc3)cc3c2CCCC3=O)cc1	-55%	-10%	6.7%	-1%	0%	?	?	7%
CCCOC(=O)C1C2C=CC3(CN(c4ccc(Cl)c(F)c4)C(=O)C13)O2 (stereo unspecified)	-3%	3%	-11%	-7%	-19%	.	.	2%
C=CCNC(=O)NC(=O)CSc1nc2cc([N+](=O)[O-])ccc2n1-c1cccc(C(F)(F)F)c1	?	-7%	1.9%	1%	-3%	?	-21%[46.1 µM]	19%
CCOc1ccc(NS(=O)(=O)c2ccc(C(=O)NCC(C)(C)N3CCOCC3)cc2)cc1	.	15%	.	.	-6%	-12%	-4%	-3%
CSc1ncnc2c1ncn2CC(=O)C1CCC2C3CCC4=CC(=O)CCC4(C)C3CCC12C (stereo unspecified)	.	-4%	.	.	11µM*	?	?	.
COc1ccccc1NC(=O)CSc1nnc(CNC(=O)c2ccco2)n1C	-47%	-11%	.	.	10%	4%	4%	0%
CC(=O)n1cc(/C=N/NC(=O)c2ccc([N+](=O)[O-])cc2)c2ccccc21	-5%	-5%	.	.	35%[activator]	.	.	-2%
COc1ccccc1N1CCN(CCN2C(=O)CC3(CCCC3)CC2=O)CC1	-8%	-14%[18.4 µM]	5.6%&-5.3%	4%&-2%	-23%&-17%&-25%	9%&-2%&9%&9%&9%&9%&9%	-7%	.
O=C(N/N=C/c1ccccc1OC(=O)c1ccc2c(c1)OCO2)c1ccccc1	19%	-6%	-5.4%	?	28%	0%	?	-20%
Cc1cc(C(=O)OCC(=O)NC(C)c2ccccc2)c(C)o1 (stereo unspecified)	-3%	2%	.	.	-3%	-2%[46.1 µM]	?	1%
Cc1onc(-c2ccccc2)c1C(=O)Nc1nnc(-c2ccncc2)s1	-37%	19%	1.3%	1%	9%	15%	?	-4%
O=C(Nc1cccnc1)c1ccc(F)cc1	-4%	1%	-0.7%	1%	21%	14%	0%	-30%
COCCCNS(=O)(=O)c1ccc2[nH]c3c(c2c1)CCCCC3	-3%	24%	.	.	25%	.	.	-1%
COc1ccccc1C1=NC(c2ccccc2)CN1c1ccccc1 (stereo unspecified)	-1%	-7%	.	.	-7%	?	11%[46.1 µM]	-3%
COc1cccc(NC(=O)CCc2nnc3n(Cc4ccccc4Cl)c(=O)c4ccccc4n23)c1	.	.	0.9%	6%	-17%	8%[46.1 µM]	.	.
CCOc1ccc2ccccc2c1CNc1nnnn1CC	-5%	-1%	.	.	-14%	-13%[46.1 µM]	7%	0%
Cc1ccc(CN2COc3cc(C)c4c(oc(=O)c5ccccc54)c3C2)cc1	.	.	-3.5%	-22%	-6%	16%[46.1 µM]	6%[46.1 µM]	.
CC(=O)CSc1ncnc2sc3c(c12)CCCC3	-11%	-21%	.	.	-11%	?	-13%	-2%
Cc1cccc(NC(=O)C2CCN(S(=O)(=O)c3c(C)noc3/C=C/c3ccco3)CC2)n1	5%	4%	-12%	-26%	0%	-39%	-18%	-11%
C=CCOn1c(=O)c(-c2ccc(OC)c(OC)c2)[n+]([O-])c2ccccc21	1%	-1%	-0.8%	-5%	11%	1%	-2%	9%
O=c1cc(N2CCOCC2)c2ccccc2o1	10%	-3%	-1.1%	6%	.	1%	-2%	12%
Nc1nc(SCC(=O)Nc2cc(-c3ccccc3)nn2-c2ccccc2)n[nH]1	2%	-2%	-3.9%	5%	.	17%	?	4%
COc1ccc(OCC(=O)N(Cc2ccc(C)o2)C2CCS(=O)(=O)C2)cc1 (stereo unspecified)	-10%	-7%	-1.3%	-7%	-6%&-14%	-5%&-5%[46.1 µM]	2%[46.1 µM]	1%
Cc1ccc(N(C)C(=O)c2cnc(N3CCOCC3)c3ccccc23)cc1C	.	.	-1.4%	1%	-13%	.	?	.
Cc1[nH]c2ccccc2c1C(c1ccncc1)N1CCC(C)CC1 (stereo unspecified)	.	-3%	.	.	-28%	12%	-4%	5%
CC1CCCCC1NC(=S)Nc1ccc(Cl)cc1Cl (stereo unspecified)	-2%	11%	.	.	0%	-27%[46.1 µM]	1%	-3%
CCc1ccccc1NCC(=O)Nc1ccc(Cl)c(C(F)(F)F)c1	-36%	?	-10%	-6%	?	-32%	-2%	-83%
O=C(NCCN1CCOCC1)c1ccc(Cl)c(S(=O)(=O)N2CCOCC2)c1	11%	-8%	.	.	-10%	28%	?	33%
O=C(NNC(=O)c1ccccc1-n1cccc1)c1ccc(Cl)cc1Cl	6%	0%	-1.6%	-3%	-4%	11%	13%	-3%
C=CCn1c(C)cc(C(=O)CSc2nc3ccccc3o2)c1C	-15%	4%	-11%	7%	-20%	13µM*	-25%	-22%
CNC(=O)CN(c1ccc(OC)cc1)S(=O)(=O)c1ccc(F)cc1	-6%	-22%	0.0%	-8%	-12%	-6%	-7%	9%
COc1ccc(NC(=O)C2CCCN(CCCc3ccccc3)C2)cc1OCC(C)C (stereo unspecified)	30%	-2%	.	.	-9%	.	.	-4%
Cc1ccc(-c2cc(C(=O)NCc3ccc4c(c3)OCO4)no2)cc1	0%	0%	5.8%	?	.	3%	8%	4%
O=C(CCc1ccccc1)NCCc1cccs1	.	-1%	.	.	8%	-26%[46.1 µM]	19%[46.1 µM]	1%
O=C(COc1ccc(Nc2ccccc2)cc1)OCC(=O)N1CCCCC1	-5%	6%	.	.	-7%	.	.	1%
CCOP(=O)(OCC)C(Nc1ccc(C(=O)O)cc1)c1ccccc1 (stereo unspecified)	0%	10%	.	.	?	.	.	1%
Cc1ccc(NC(=O)CCN2CCOCC2)cc1C	-3%	2%	.	.	-13%	.	.	12%
COc1ccc(S(=O)(=O)N(C)CC(=O)Nc2ccccc2SC)cc1Cl	5%	-10%	-8.0%	3%	0%	-2%[46.1 µM]	-11%	10%
COCCN=C1Sc2nc3ccc(C)cc3cc2CN1Cc1cccs1	-2%	-22%	.	.	10%	17%[46.1 µM]	-24%	-2%
CCn1ncc(C(=O)Nc2ccccc2C)c1C	0%	-7%	2.2%	-1%	19%	?	3%	3%
COc1ccc(C2C(C#N)=C(C)NC(C)=C2C(=O)OC(C)C)c(OC)c1 (stereo unspecified)	.	-8%	.	.	-16%	?	-2%[46.1 µM]	-4%
CC1CCCN(Cc2csc(N)n2)C1 (stereo unspecified)	.	2%	.	.	10%	-9%[46.1 µM]	14%[46.1 µM]	1%
COc1ccc2cc(C(c3nnnn3C(C)(C)C)N3CCSCC3)c(=O)[nH]c2c1 (stereo unspecified)	5%	-12%	-6.8%	8%	.	1%	4%	1%
CN(C)/C(Cn1cncn1)=C1/N=C(c2ccccc2)OC1=O	3%	1%	.	.	-8%	.	.	-2%
Other compounds follow.
SMILES	NS1 function inh	RE007 growth inh	Cruzain inh Det	Cruzain inh noDet	2A StopGo	MARV entry inh	Lassa entry inh	SARS PLP yeast
C/C(=N\O)C(C)(C)Nc1ccc(F)cc1	-1%	7%	.	.	-5%	.	.	1%
CC(=O)c1ccc(C#CC(C)(C)O)s1	10%	-3%	10%	0%	-3%	1%[46.1 µM]	?	-5%
Fc1ccccc1OCCCCSc1ncccn1	0%	-17%	0.8%	6%	74%[activator]	-6%	13%	3%
Cc1ccn2c(Nc3ccc(F)cc3)c(-c3ccccn3)nc2c1	.	.	1.9%	-2%	-14%	5%[46.1 µM]	0%[46.1 µM]	.
CCOC(=O)COc1c(Cl)cc(C2NC(=S)NC(c3ccccc3)=C2C(C)=O)cc1OC (stereo unspecified)	-12%	5%	-3.5%	8%	?	-4%	-9%	-8%
O=C(NC(Cc1c[nH]c2ccccc12)C(=O)O)/C(=C/c1ccc2c(c1)OCO2)NC(=O)c1ccccc1 (stereo unspecified)	.	6%	.	.	12%	1%[46.1 µM]	12%[46.1 µM]	1%
COc1ccc(CNC(=O)c2cc(-c3ccc(C)c(C)c3)n[nH]2)cc1	.	.	-7.6%	9%	52%[activator]	.	?	.
Nc1c(Cl)cc(NC(=O)c2ccccc2C(=O)O)cc1Br	20%	3%	-1.2%	-6%	1%	21%	?	9%
CC(=O)Nc1ccc(NC(=O)COc2ncnc3ccccc23)cc1	6%	2%	.	.	-6%	.	.	0%
COc1ccc(NC(=O)Nc2ccc(Cc3ccncc3)cc2)cc1OC	20%	-8%	3.3%	1%	22µM*	-1%[46.1 µM]	-7%	2%
CN1C(=O)CC(N2CCN(c3ccc(Cl)c(Cl)c3)CC2)C1=O (stereo unspecified)	-10%	-8%	-2.7%	7%	-13%	-8%	-10%	-2%
COc1cccc(Oc2nc(N)ncc2[N+](=O)[O-])c1	4%	-10%	.	.	-20%	-7%[46.1 µM]	18%	-5%
Cc1ccc(N=C2NC(=O)/C(=C/c3cccn3C)S2)cc1	1%	0%	.	.	50%[activator]	.	.	-1%
CCCN(CC(=O)Nc1ccc(OC)c(OC)c1)CC(=O)Nc1ccc(F)c(F)c1F	.	2%	.	.	0%	?	-16%	3%

Source: PubChem BioAssay (National Center for Advancing Translational Sciences (NCATS))
